Ba CapD inh: Bacillus anthracis CapD inhibitors, primary screen, biochemical, fluorescence intensity. CapD gamma-glutamyltranspeptidase (Bacillus anthracis Ames Ancestor). purified CapD enzyme, fluorescence intensity read-out; stronger effect = lower value; some hits fall short of the stated cut. z-score (concentration not given with the values). hit rate 0.23% among 140,000. AID 492967, 2010;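 active = z-score under -4 in either of two replicates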;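 note: stock transfer was 100 nL into about 40 µL; score is relative to mean and spread of the plate; one replicate is shown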
AID504770: growth inhibition of E. coli YBA685, primary screen, V. cholerae RctB inhibitors. E. coli YBA685 rctB-dependent plasmid, OD600 growth, 3 h; stronger effect = lower value. z-score (no concentration beside the values). hit rate 0.27% among 130,000;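 active = z-score under -2 on both plates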;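 note: wells of about 30 µL received 100 nL stock; score is relative to mean and SD of the test wells; the first replicate is given; strong numbers were not always called active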
Starred values were filed as active, the others as inactive; / = not tested or not shown; & = joins results of further samples.

SMILES	Ba CapD inh	AID504770
COc1ccc(OC(=O)C2CCN(c3ccc(C(F)(F)F)cn3)CC2)cc1	1.1	-0.8
CCCNC(=O)C(N)Cc1c[nH]c2ccccc12 (stereo not drawn)	0.32	-1.4
COc1ccc(CNCc2cccs2)cc1Cn1ccnc1	0.7	-0.9
CC1NC(=O)NC2NC(=O)NC(C)C12 (stereo not drawn)	/	1.7
O=C(Oc1cc(=O)oc2c1c(=O)n1c3c(cccc23)CC1)c1ccco1	4.6	-1.1
CNCc1ccc(Br)cc1	/	-0.5
Cc1nc(N2CCCCC2)c(C#N)c2c1COC(C)(C)C2	/	0.3
CC(C)N(Cc1nc2ccccc2c(=O)[nH]1)C(=O)c1cc(C2CC2)nn1-c1ccccc1	/	0.15
O=C(c1ccccc1Cl)N1CCC(n2cccc2)CC1	0.8	-0.7
O=C(NCc1ccncc1)c1cccc(Cn2cc(Br)cn2)c1	-0.59	2.1
O=c1/c(=C\c2cccc(F)c2)sc2nc3cc(Br)cnc3n12	0.45	/
Cc1ccccc1-n1nc2c(c1NC(=O)c1ccc(S(=O)(=O)N3CCOCC3)cc1)CS(=O)C2 (stereo not drawn)	/	-0.8
Cc1cc(C)c2c(c1)-c1c(ssc1=S)C(C)(C)N2	-2.3	/
COc1ccc(NC2c3cccc4cccc(c34)C2NS(=O)(=O)c2ccc(Cl)cc2)cc1 (stereo not drawn)	-0.41	/
CCn1c(CNC(=O)c2ccccc2F)nnc1SCC(=O)NC1CCCCC1C (stereo not drawn)	/	-0.8
O=C(c1ccc(N2CCCC2=O)cc1)N1CCN(c2ccccc2)CC1	0.88	1
CC(C(=O)Nc1ccc(Cl)cn1)n1c(C(F)(F)F)nc2ccccc21 (stereo not drawn)	0.11	/
N#Cc1c(NC(=O)C(F)(F)F)sc2c1CCCC2	-2.9	-0.5
CSc1nsc(SCc2ccc(C(=O)Nc3ccc(Cl)cc3)cc2)n1	1	1.9
COc1ccc2c(c1)cc1n2CCN2CCN=C12	2.4	-0.2
COC(=O)Cn1ncc(N2C3CC(CC(C)(C)C3)C2C)c(Cl)c1=O (stereo not drawn)	/	-0.85
CCOc1ccc(N(CC(=O)Nc2ccc3c(c2)OCO3)S(=O)(=O)c2ccc(SC)cc2)cc1	0.23	/
COc1ccc(C2(CNC(=O)CCOc3ccccc3)CCOCC2)cc1	-0.15	-1.1
Brc1ccc(-c2ccn[nH]2)s1	-0.52&0.97	/
CCOc1[nH]n(-c2ccc(Cl)cc2)c(=O)c1C=Nc1ccc(OC)cc1	-0.94	/
COC(=O)c1cccc(NS(=O)(=O)c2ccc(OC)c(Cl)c2)c1C	-0.31	-0.75
CCC(=O)N(c1ccc2c(c1)CCN2C(C)=O)C1CCN(C(C)=O)CC1	0.19	/
CN(Cc1ccc(OC(F)F)cc1)S(=O)(=O)c1ccccc1C#N	/	-0.25
CC1(C)CSC(=NCc2ccccc2)N1C(=O)CN1C(=O)C2C3C=CC(C3)C2C1=O (stereo not drawn)	/	0.3
CN(C)CCN(Cc1ccccc1)CC1CC2C=CC1C2 (stereo not drawn)	0.29	-0.2
O=C(O)c1cccc(NS(=O)(=O)c2ccc3c(c2)OCCCO3)c1	/	0.3
COc1cc2c(c(OC)c1OC)-c1ccc(O)c(=O)cc1C(N)CC2 (stereo not drawn)	0.17	/
Cc1cc2ccccc2n1-c1ccc(C(=O)N2CCC(C(=O)NC3CC3)CC2)s1	0.43	0.7
Nc1nc(CCC(=O)OCC(=O)Nc2ccc(F)cc2)nc(Nc2ccccc2)n1	/	-0.5
O=C(COC(=O)CCc1ccc(S(=O)(=O)N2CCOCC2)cc1)Nc1ccccc1OC(F)F	/	0.2
Cc1nnc(SCC(=O)N2CCc3ccccc3C2)s1	-0.085	-0.5
COc1ccc(N/N=C(/C#N)S(=O)(=O)c2nsc(C)c2C#N)cc1	-5.8*	/
Cc1cc(C)c(S(=O)(=O)Nc2cc3c(C(=O)OC(C)C)c(C)oc3c3ccccc23)c(C)c1	0.55	/
COc1ccc(C)cc1NC(=O)CN(C)S(=O)(=O)c1ccc(Br)s1	-0.09	-1.1
O=C(CN1C2=NCCN2c2ccccc21)c1ccc(O)cc1	/	0.45
CCOC(=O)c1cc(C)sc1N1C(=O)C=CC1=O	-1	2.1
CCCCCCCCOc1ccc(-c2ncc(CCCCCCCC)cn2)cc1	-0.03	/
CN1CCN(C(=O)CN2C(=O)/C(=C/c3ccccc3)SC2=S)CC1	/	-0.15
Cc1ccc(NC(=O)CSc2nc3c(cc2C#N)CCCCC3)cc1	0.21	/
CN(C)c1ccc(C2(c3ccc(N(C)C)cc3)C=Cc3c(ccc4ccccc34)O2)cc1	-0.12	/
COc1ccc(-n2ncc(C(=O)Nc3ccccn3)c2C2CCN(C(=O)OC(C)(C)C)CC2)cc1	0.29	0.25
O=C(Nc1ccnn1C1CCCCC1)c1cccnc1Nc1ccccc1F	/	0.4
Cc1nn(-c2ccc(F)cc2)c2sc(C(=O)N(Cc3ccco3)Cc3cccs3)cc12	/	-0.45
CCOC(=O)C1CCN(C(=O)c2cnn3c(C(F)(F)F)cc(-c4ccc(OC)c(OC)c4)nc23)CC1	0.83	/
CCOC(=O)c1c(CSc2nc3ccccc3s2)n(-c2ccccc2)c2cc(Br)c(OC(C)=O)cc12	-0.29	/
CN1CCN(C(=O)c2cc3ccccc3nc2Cl)CC1	0.3	0.7
COC(=O)c1nn(-c2ccccc2)c(=O)cc1Oc1ccc(Cl)cc1	-0.11	/
C=Cc1ccc(CN2C(=O)N(c3ccccc3)C3CS(=O)(=O)CC32)cc1 (stereo not drawn)	-1.3	-0.15
O=c1c2ccccc2c(-c2ccc(F)cc2)nn1-c1ccccc1	0.29	/
O=S(=O)(Cc1ccccc1Cl)NCc1cccnc1	0.69	0.65
COc1ccc(CCNS(=O)(=O)c2ccc3c(c2)CCN3C(=O)C2CCC2)cc1OC	-0.11	0.35
COC(=O)c1ccc(Sc2nc(C)cc(C)n2)nc1	-0.29	/
COC(=O)c1cc(NS(=O)(=O)c2ccccc2)cc(C(=O)OC)c1	3	0.2
CCOc1cc2c(c([N+](=O)[O-])c1)NC(c1cccc([N+](=O)[O-])c1)C1CC=CC21 (stereo not drawn)	-0.78	/
Clc1nc2c(Cl)cccc2s1	/	-1
The listing continues.
SMILES	Ba CapD inh	AID504770
COC(=O)c1ccc(-c2ccc(C(=O)N3CCCN(C)CC3)cc2)cc1	0.21	-0.35
Cc1ccc(CNCc2ccccc2)s1	/	1.8
c1ccc(-c2nnc(SCC3COc4ccccc4O3)nc2-c2ccccc2)cc1 (stereo not drawn)	-0.17	0.2
COc1ccc(-c2csc(=Nc3ccc(F)cc3)n2CCc2ccc(OC)c(OC)c2)cc1F	3	/
Cc1ccc(C)c(C2=NN(c3ccccc3)C3(SC(c4ccccc4)=NN3c3ccc([N+](=O)[O-])cc3)c3ccccc32)c1 (stereo not drawn)	-0.29	/
Cn1c(=O)c2c(SCc3cccc(F)c3)nc(-c3ccc(F)cc3)nc2n(C)c1=O	-0.46	1.2
CN(C)C1(CNC(=O)Nc2ccccc2)CCCCC1	/	-1.1
CC(=O)NN=C(C1CC1)C1CC1	/	-0.4
COc1ccc(OC)c(-n2c(N)c(C(=O)Nc3ccccc3C)sc2=S)c1	0.8	/
CCSc1nc2c(sc3ccccc32)c(=O)n1CC1CCCO1 (stereo not drawn)	2.3	-0.1
O=C(CSc1nnnn1-c1ccccc1F)N1c2ccccc2Sc2ccc(Cl)cc21	0.12	-0.05
CCc1nnc(NC(=O)c2ccc(S(=O)(=O)N3CCCC3)cc2)o1	-0.13	/
CN(C)/C=N/c1nnc(N2CCN(c3cccc(Cl)c3)CC2)s1	-1.4	-0.25
CCOC(=O)c1c(C)n(Cc2ccccc2)c2cc(Br)c(OC(C)=O)cc12	-0.21	/
Cc1cc(C)cc(N2C(N)=NC(N)=NC2c2cccc(Cl)c2)c1 (stereo not drawn)	-0.64	2
O=C(NCc1cccs1)c1cc(Br)cs1	-0.1	-1.1
CC1CCCC(C)N1C(=O)Cn1c(=O)sc2ccccc21 (stereo not drawn)	-0.045	-1.1
Oc1ccc(C=Nc2ccc(Nc3ccccc3)cc2)c(O)c1	-1.8	-0.3
O=C(O)/C=C/c1ccc(C(F)(F)F)cc1	0.19	-0.15
CCc1ccc(NC(=O)Cn2c(=O)cc(C)c3c(C)nn(C)c32)cc1	0.74	0.35
O=C(c1ccccc1)c1cc2ccc(O)cc2oc1=O	-6.3*	-0.55
CCOC(=O)C1=CN2[C@H](C(=O)c3ccccc3)[C@@H](c3ccccc3)[C@H](C(=O)C34CC5CC(CC(C5)C3)C4)[C@@H]2C=C1	-0.01	/
Cc1ccc(C(=O)NCc2c(C)c(C)n(Cc3ccccc3)c2-n2cccc2)cc1	0.12	/
C[N+]12CCC(CC1)C(OC(=O)C(O)(c1ccccc1)c1ccccc1)C2 (stereo not drawn)	-0.17&-0.77	0.6
COc1ccc(-c2noc(N(C)CC(=O)N3CCN(c4cccc(Cl)c4)CC3)n2)cc1	-0.68	0.75
CCc1ccc(OCC(=O)c2ccc(O)c(CN(C)C)c2O)cc1	-2.4	-1.3
CC(C(=O)N1CCCC1)N1CCN(S(=O)(=O)c2cccs2)CC1 (stereo not drawn)	/	0.15
N#Cc1ccsc1NC(=O)C1CC1	-0.19	-0.5
C#CCSc1nnc2[nH]c(=O)cc(CCC)n12	/	-1.2
CC(=O)Nc1ccccc1N1CCN(S(C)(=O)=O)CC1	-0.43	-0.4
CCCCNC(=O)C12CCC(C)(C(=O)C1)C2(C)C (stereo not drawn)	/	1.1
CN(CCCN1c2ccccc2CCc2ccccc21)C(=O)OCCCCl	-0.59	/
COc1cc(OC)c2c(C)cc(=O)oc2c1	/	1.6
Cc1ccc(Cn2cc(-c3cccc(C(F)(F)F)c3)cc(C#N)c2=O)cc1	4.7	/
O=C(Nc1ccc(S(=O)(=O)NC23CC4CC(CC(C4)C2)C3)cc1)C1CC1	0.44	-0.8
Cc1cc(/C=N/NC(=O)c2ccccc2[N+](=O)[O-])c(C)n1-c1cccc(C(F)(F)F)c1	-0.37	/
Cc1ccc(C(=O)NCC(=O)O)cc1C	-0.55	-0.55
CC1CCN(c2nc(Cc3ccc(Cl)cc3Cl)nc3c2nnn3C)CC1	0.22	-1.3
CCNC(=O)N(Cc1ccccc1OC)c1ccc2[nH]c(C(C)(C)C)cc2c1	-0.49	/
Nc1ccccc1Sc1nccc(C(F)(F)F)n1	-0.34	/
O=C(Cc1ccccc1)Nc1c(C(=O)N2CCCC2)oc2ccccc12	9.3	-0.65
O=C(COC(=O)Cc1ccsc1)Nc1ccccc1C(F)(F)F	-1.2	2
COc1cccc2sc(NC(=O)c3ccc(S(=O)(=O)N4CC(C)CC(C)C4)cc3)nc12 (stereo not drawn)	0.15	/
CS(=O)(=O)c1ccc(C(=O)Nc2ccccc2N2CCOCC2)c(Cl)c1	-0.41	/
O=C(CN1CCC(c2nc3ccccc3[nH]2)CC1)N1CCCCC1	/	-1
N=C1C(NO)=NC(c2ccccc2)N1O (stereo not drawn)	-0.6	2
ClC1(Cl)CC1Cn1cnc2ccccc21 (stereo not drawn)	-0.35	-0.7
Oc1ccccc1CNc1cnc2ccccc2c1	67	-0.7

17 of these compounds, reformatted.
molecule | Ba CapD inh | AID504770
COc1ccc(OC(=O)C2CCN(c3ccc(C(F)(F)F)cn3)CC2)cc1 | 1.1 | -0.8
CCCNC(=O)C(N)Cc1c[nH]c2ccccc12 (stereo not drawn) | 0.32 | -1.4
COc1ccc(CNCc2cccs2)cc1Cn1ccnc1 | 0.7 | -0.9
CC1NC(=O)NC2NC(=O)NC(C)C12 (stereo not drawn) | / | 1.7
O=C(Oc1cc(=O)oc2c1c(=O)n1c3c(cccc23)CC1)c1ccco1 | 4.6 | -1.1
CNCc1ccc(Br)cc1 | / | -0.5
Cc1nc(N2CCCCC2)c(C#N)c2c1COC(C)(C)C2 | / | 0.3
CC(C)N(Cc1nc2ccccc2c(=O)[nH]1)C(=O)c1cc(C2CC2)nn1-c1ccccc1 | / | 0.15
O=C(c1ccccc1Cl)N1CCC(n2cccc2)CC1 | 0.8 | -0.7
O=C(NCc1ccncc1)c1cccc(Cn2cc(Br)cn2)c1 | -0.59 | 2.1
O=c1/c(=C\c2cccc(F)c2)sc2nc3cc(Br)cnc3n12 | 0.45 | /
Cc1ccccc1-n1nc2c(c1NC(=O)c1ccc(S(=O)(=O)N3CCOCC3)cc1)CS(=O)C2 (stereo not drawn) | / | -0.8
Cc1cc(C)c2c(c1)-c1c(ssc1=S)C(C)(C)N2 | -2.3 | /
COc1ccc(NC2c3cccc4cccc(c34)C2NS(=O)(=O)c2ccc(Cl)cc2)cc1 (stereo not drawn) | -0.41 | /
CCn1c(CNC(=O)c2ccccc2F)nnc1SCC(=O)NC1CCCCC1C (stereo not drawn) | / | -0.8
O=C(c1ccc(N2CCCC2=O)cc1)N1CCN(c2ccccc2)CC1 | 0.88 | 1
CC(C(=O)Nc1ccc(Cl)cn1)n1c(C(F)(F)F)nc2ccccc21 (stereo not drawn) | 0.11 | /

Next structures
SMILES	Ba CapD inh	AID504770
Cc1ccc(-n2nc(C)c3c(C)c(CCC(=O)NC(C)CCc4ccco4)c(C)nc32)cc1 (stereo not drawn)	16	0.75
CCN(CC)C(=S)N=P(c1ccccc1)(N1CCOCC1)N1CCOCC1	/	0.2
CCCN(CCC)S(=O)(=O)c1ccc(C(=O)Nc2ccc(F)cc2F)cc1	-0.24	-1
Cc1ccc(N2CC(C(=O)O)CC2=O)cc1C (stereo not drawn)	0.16	1.2
CSc1nc(-n2nc(C)cc2C)c2c3c(sc2n1)COC(C)(C)C3	1.3	-0.4
COC(COC(=O)NNC(=O)c1cc(-c2nc(C)cs2)c(SC)s1)c1ccccc1 (stereo not drawn)	2.5	/
COc1cccc(NC(=S)NC2CC(C)CC(C)(C)C2)c1 (stereo not drawn)	0.25	/
CC(C)CCNC(=O)c1cc2c(s1)CSC2	2.6	-0.35
COC(=O)CSc1nc2cc(OC)c(OC)cc2cc1C	/	-0.4

Source: PubChem BioAssay
